Screening data deposited in PubChem BioAssay by ICCB-Longwood Screening Facility, Harvard Medical School.
Sa growth 42C: S. aureus growth inhibition; S. aureus RN4220 growth, OD600, 20 h, 42 °C; active compounds read low; relative growth, % (test concentration not listed); hit rate 0.53% among 170,000; AID 720641;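 active means growth at 42 °C up to 50% and 20 or more points under that at 30 °C, or under 10% at both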;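 further: 300 nL library stock went into each well; scaled to the means of positive and negative controls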
HCMV UL50-53 inh: inhibitors of HCMV UL50-UL53 nuclear egress complex interaction; hit rate 0.15% among 190,000; inhibition, % (no concentration beside the values); AID 1918969; HTRF UL50-UL53 interaction, normalized percent inhibition;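 active means both replicates at 50% or more, plus weaker picks with an unusually low signal ratio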;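 further: stock transfer was 100 nL into about 20 µL; 0% = negative control wells and 100% = wells with untagged competitor protein; inactives centre near -12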
GIV Gai3 FP: GIV-Galpha-i interaction inhibition; Galpha-i3/FITC-GIV peptide fluorescence polarization, 90 min; active compounds read low; scaled: aluminum fluoride 0%, vehicle 100%; percent of control (FP), % (concentration not given with the values); hit rate 0.42% among 210,000;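 active means replicate mean at 85% of control or lower, very high polarization wells dropped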;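 further: wells of about 15 µL received 100 nL stock; the first replicate is given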
Target sequence (P08753 whole entry, looked up): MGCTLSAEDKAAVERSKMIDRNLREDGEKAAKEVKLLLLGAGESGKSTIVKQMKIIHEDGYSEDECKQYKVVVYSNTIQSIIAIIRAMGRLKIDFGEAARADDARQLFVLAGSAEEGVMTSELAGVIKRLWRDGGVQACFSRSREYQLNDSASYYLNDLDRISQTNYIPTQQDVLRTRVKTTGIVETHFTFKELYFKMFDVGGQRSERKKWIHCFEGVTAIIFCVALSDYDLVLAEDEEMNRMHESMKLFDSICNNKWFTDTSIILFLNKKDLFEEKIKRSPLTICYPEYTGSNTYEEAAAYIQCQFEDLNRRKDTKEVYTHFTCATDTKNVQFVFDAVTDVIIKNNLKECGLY
Sa growth 42C second temp: recorded beside Sa growth 42C, whose call it bears; relative growth, %; measured here: growth at 30 °C;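 optical density after 20 h as mean of two plates; 100% = untreated growth and lower means inhibition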
Active calls of the source: *; x = no result given.

SMILES	Sa growth 42C	Sa growth 42C second temp	HCMV UL50-53 inh	GIV Gai3 FP
Cc1cc(N/N=C/C2=C(N3CCOCC3)C(=C\c3ccc(Cl)cc3Cl)/CC2)n[nH]1	112	85	-20	x
Fc1ccc(-c2noc3ncnc(Nc4ccc(F)cc4F)c23)cc1	114	101	x	106
NS(=O)(=O)c1ccc(NC(=O)Cc2ccccc2F)cc1	98	101	-5	x
COc1cccc(NC(=O)CN2C(=O)CC(c3ccco3)Sc3ccccc32)c1 (stereo not given)	116	67	-15	103
O=C(Cn1c(=O)[nH]c2c(-c3ccccc3)c[nH]c2c1=O)NCc1ccccc1	x	x	-20	100
CC(C)(C)C1(O)C=C(O)C(=O)N1c1cccnc1 (stereo not given)	101	92	2	x
CCc1ccc(-c2nc3ccccn3c2CNCc2ccc(C)cc2)cc1	x	x	-21	101
CCc1cccc(C)c1NS(=O)(=O)c1ccc2c(c1)CC(C)N2C(=O)C1CC1 (stereo not given)	89	87	x	103
O=C(O)C(NS(=O)(=O)c1ccccc1)C(O)c1ccccc1 (stereo not given)	95	92	-8	106
COc1ccccc1NC(=O)CSc1ccc(-c2sc(C)nc2C)nn1	117	72	x	100
COc1ccc(NC(=O)C(CC(C)C)NS(=O)(=O)c2ccc3c(c2)oc(=O)n3C)cc1Cl (stereo not given)	x	x	-7	97
c1ccc2c(c1)CCC/C2=N\NC1=NCCN1	106	100	5	102
CCc1ccc(NC(=O)N2CCN(c3nnc(C)c4c(C)n(-c5ccc(Cl)cc5)nc34)CC2)cc1	98	85	x	114
CNS(=O)(=O)c1cccc(C(=O)NC2CCCc3ccccc32)c1 (stereo not given)	105	89	-29	x
Cn1c(=O)c2c(n3ncnc13)NC(=O)CC2c1cccc(F)c1 (stereo not given)	105	91	-7	104
CCCCN(C)CCCNC(=O)c1cc(=O)[nH]c2ccc(S(=O)(=O)N3CCCCC3)cc12	104	88	x	100
CCC(=O)N1c2ccccc2NC2=C(C(=O)CC(C)(C)C2)C1c1ccc(-c2cccc([N+](=O)[O-])c2)o1 (stereo not given)	x	x	-30	107
CC1(C)CC(=O)C(C2c3ccccc3Oc3ccccc32)C(=O)C1	96	113	x	101
O=C(NCc1cccs1)c1cnc2sccn2c1=O	91	80	-35	102
COc1ccc(OC)c(CNC(=O)C2CCCN(c3ncnc4onc(-c5ccc(F)cc5)c34)C2)c1 (stereo not given)	100	91	x	108
CN1/C(=C2\C=NN(c3ccccc3)P2(=O)N2CCCC2)C(C)(C)c2ccccc21 (stereo not given)	107	97	-13	x
CN1C(=O)CN(C2CCCCC2)C(=O)c2ccccc21	95	86	-25	99
O=C(O)c1ccc(C(F)(F)F)cc1C(F)(F)F	103	86	-19	102
Cc1ccc2c(c1)N(Cc1cccc(C(F)(F)F)c1)C(=O)C(C)O2 (stereo not given)	96	95	-11	98
COc1ccc(OC)c(NC(=O)/C=C/c2ccc(C)o2)c1	102	87	-41	107
O=C(OCc1ccc2c(c1)OCO2)c1c(F)cccc1Cl	119	85	-41	x
O=C(CC1CCN(S(=O)(=O)c2ccc(Cl)cc2)CC1)N1CCOCC1	x	x	-20	98
CCN(CC)C(=O)Cn1cnc2sc(C(=O)N3CCN(Cc4ccc5c(c4)OCO5)CC3)c(C)c2c1=O	x	x	-13	105
O=C(Nc1ccc(F)cc1)[C@@H](c1ccccc1)N1Cc2ccccc2C1=O	109	93	-29	100
CC(C)(C)c1ccc(S(=O)(=O)N2CCCC(C(=O)O)C2)cc1 (stereo not given)	92	76	-14	96
N#Cc1ccc(C=Nc2cccc3c(=O)[nH][nH]c(=O)c23)cc1	115	79	-15	95
NC(=O)c1cc(S(=O)(=O)N2CCN(c3ccc(F)cc3)CC2)cs1	87	86	x	97
CCCCOc1ccc(C(=O)NCCc2sc(-c3ccc(OC)c(OC)c3)nc2C)cc1	99	85	x	101
CC1CCCC(C)N1C(=O)c1csc2c1CCCC2 (stereo not given)	117	92	1	101
Cc1c(C(=O)N2CCN(C)CC2)oc2c1C(=O)CC(C)(C)C2	115	88	x	101
COc1cccc(CNC(=O)CCNS(=O)(=O)c2ccc3c(c2)CCCC(=O)N3)c1	115	91	x	106
O=C1CC(c2ccco2)CC(O)=C1C=NCC1NCCc2ccccc21 (stereo not given)	104	92	-2	x
OC(CN1CCN(c2ccc(C(F)(F)F)cn2)CC1)c1ccc(F)cc1 (stereo not given)	97	94	-15	102
COC(=O)c1ccccc1S(=O)(=O)NCC#N	92	79	-25	103
OCC1CCCN1Cc1ccccc1C(F)(F)F (stereo not given)	95	83	-1	108
C=CCN(c1ccc(C(=O)Nc2ccc(OC)cc2OC)cc1)S(C)(=O)=O	105	101	4	111
N#CCCCn1c(=O)oc2ccccc21	117	99	8	114
Cc1ccccc1Oc1ccc(CN)cc1	114	94	8	104
Cc1cccc(-c2noc(CCC(=O)Nc3ccncc3)n2)c1	x	x	22	107
COc1nc(SC)nc2sc3c(c12)CCC3	122	96	-15	101
O=C(O)CNC(=O)c1ccc(Cl)c(Cl)c1	116	86	-33	x
Cc1ccc(NC(=O)CCc2nnc3ccc(NCCCN4CCOCC4)nn23)cc1	x	x	-26	95
Cc1cccn2c(=O)c3cc(C(=O)N4CCN(C)CC4)c(=N)n(Cc4cccnc4)c3nc12	94	78	x	105
Cc1oc(-c2ccccc2Cl)nc1CS(=O)CC(=O)NCc1ccc(Cl)cc1 (stereo not given)	99	81	-32	106
O=S1(=O)CCC(N/N=C/c2ccccc2O)C1 (stereo not given)	108	88	-52	x

Part of the list above, as labelled records.
canonical_smiles: CNS(=O)(=O)c1cccc(C(=O)NC2CCCc3ccccc32)c1 (stereo not given)
  Sa growth 42C = 105
  Sa growth 42C second temp = 89
  HCMV UL50-53 inh = -29
  GIV Gai3 FP = x
canonical_smiles: COc1ccccc1NC(=O)CSc1ccc(-c2sc(C)nc2C)nn1
  Sa growth 42C = 117
  Sa growth 42C second temp = 72
  HCMV UL50-53 inh = x
  GIV Gai3 FP = 100

The list goes on.
SMILES	Sa growth 42C	Sa growth 42C second temp	HCMV UL50-53 inh	GIV Gai3 FP
CN(C)S(=O)(=O)c1ccc(N2CCCC2)c(C(=O)OCCCOc2ccc(F)cc2)c1	113	94	-11	x
N#Cc1c(-c2ccccc2)cc2nc3ccccc3n2c1N	118	95	-5	x
COc1ccc(NC(=O)c2c(C)oc3ccc(O)c(CN4CCCC(C)C4)c23)cc1Cl (stereo not given)	106	68	-7	104
Fc1ccc(NC(=S)Nc2ccccc2)cc1	81	74	-20	x
CC(=O)Nc1ccc(/C=N/NC(=S)Nc2cccnc2)cc1	81	94	-38	x
COc1ccccc1NC(=O)Nc1ccc2c(c1)nc(C)n2C	126	87	-18	106
O=C(NC1CCCC1)c1noc2ncnc(N3CCOCC3)c12	99	90	-30	101
CC(C)(C)c1nc(C#N)c(N2CCC(C(N)=O)CC2)o1	81	94	-6	x
Cn1c(=O)[nH]c(=S)c2nc(-c3ccc(F)cc3)cnc21	81	78	-78	101
CC(C)(C)OC(=O)NN=C1CCCC1	115	88	-7	x
Cc1cccc(N2CC(O)=C(c3nc4ccccc4n3C)C2=N)c1	x	x	15	103
COc1ccccc1CNC(=O)c1ccc2nc3[nH]c4ccccc4c3nc2c1	96	85	2	101
CCNC(=O)c1c(O)c2cccc3c2n(c1=O)CC3	121	84	x	100
CC(=O)N1CCN(c2ccc(Oc3ccc(C(F)(F)F)cn3)cc2)CC1	65	86	-27	x
O=S(=O)(/C=C/c1ccccc1)N1CCOCC1	106	72	-3	104
CCn1c(SCc2nnc(-c3ccccc3)o2)nnc1-c1ccccc1	92	87	-25	x
COC(=O)c1ccc(C2C3=C(Nc4nnnn42)C(C2CCCCC2)CCC3)cc1 (stereo not given)	99	104	-21	x
CCc1nc(-c2ccc(C(=O)NCC(=O)NC3CCCC3)cc2)no1	x	x	-38	109
CCOC(=O)c1sc2nc(CNC(C)C)nc(NC(C)C)c2c1C	100	90	-17	x
CC(C)NC(=O)CCCc1ccccc1	102	102	-12	103

5 consecutive records from above:
SMILES	Sa growth 42C	Sa growth 42C second temp	HCMV UL50-53 inh	GIV Gai3 FP
CCn1c(SCc2nnc(-c3ccccc3)o2)nnc1-c1ccccc1	92	87	-25	x
COC(=O)c1ccc(C2C3=C(Nc4nnnn42)C(C2CCCCC2)CCC3)cc1 (stereo not given)	99	104	-21	x
CCc1nc(-c2ccc(C(=O)NCC(=O)NC3CCCC3)cc2)no1	x	x	-38	109
CCOC(=O)c1sc2nc(CNC(C)C)nc(NC(C)C)c2c1C	100	90	-17	x
CC(C)NC(=O)CCCc1ccccc1	102	102	-12	103

Next structures follow.
SMILES	Sa growth 42C	Sa growth 42C second temp	HCMV UL50-53 inh	GIV Gai3 FP
CCOCCCNC(=O)C(NC(=O)C1CCC(C)CC1)C(C)C (stereo not given)	91	95	-6	106
O=S(=O)(c1cccc(C(F)(F)F)c1)N1CCCCC1	87	92	-20	99
CCCC(=O)n1nc(-c2cccnc2)nc1NCc1ccc(OC)cc1	95	87	-30	105
CNC(=O)c1cc(S(=O)(=O)N2CC(C)OC(C)C2)ccc1N1CCOCC1 (stereo not given)	95	100	-23	104
CC1=C(C(=O)Nc2cccc(F)c2)C2(CCCCCC2)OC1=O	102	91	x	97
CCN(c1ccc(NC(=O)COC(=O)c2ccc(N(C)C)cc2)cc1)C(C)C	102	92	-14	x
Nc1cc(C(=O)O)c2ccccc2n1	100	89	-22	104
CCn1nc(C)cc1C(=O)Sc1ccc(C(F)(F)F)cn1	71	28	2	105
Cn1cnnc1SCC(=O)N(CC1CCCO1)c1nc(-c2ccc(Br)cc2)cs1 (stereo not given)	91	92	-2	x
COc1ccc(CNC(=O)CCc2cn(Cc3cc(C)ccc3C)c3ccccc23)cc1OC	120	63	x	106
COc1ccc(C2=Nc3ccccc3N(CC(=O)Nc3cccc(C(C)=O)c3)C(=O)C2)cc1	113	102	x	101
CCCCc1cc(O)c(CCCC)c(O)c1	69	21	-17	104
CC(C)n1c(NCc2ccccc2)nc2ccccc21	101	85	-10	x
COCCn1c(C)cc(C(=O)CSc2nc(-c3ccccc3)cs2)c1C	119	98	-5	x
Cn1c(-n2c(CN3C(=O)c4ccccc4C3=O)nc3ccccc3c2=O)nc2ccccc21	x	x	-5	98
COC(=O)c1sc(NC(C)=O)nc1C	95	87	-1	114
O=[N+]([O-])c1cc(-c2nc(-c3ccccc3)no2)ccc1N1CCN(c2ccccc2)CC1	100	84	-29	105
NC(=O)COC(=O)CC1CC2CCC1C2 (stereo not given)	107	89	-17	x
CCOC(=O)C1=C(C)N(c2ccc(OC)cc2)C(=O)/C1=C\c1ccco1	83	87	-53	89
O=C(Cn1c(=O)c2cccn2c2ccc(F)cc21)N1CCN(c2ccccc2F)CC1	111	100	2	96
O=C(NCCOc1nnc(-c2ccccc2)o1)c1c(F)cccc1F	114	88	-12	100
Cc1ccc(Sc2ncccc2-c2nnc(-c3ccccc3)o2)cc1	97	87	-7	109
O=C(NCCc1cccs1)c1ccc(Cn2c(SCc3cccc(F)c3)nc3cccnc32)cc1	112	98	-23	96
OCc1nnc2c3ccccc3c(-c3ccccc3)nn12	96	89	-19	111
COC(=O)c1cc(COC(=O)c2ccc(Cl)cc2)oc1C	93	96	0	x
Cc1cc(C)cc(-n2c(SCC(=O)N3CCCC3)nc3c([nH]c4ccccc43)c2=O)c1	105	74	x	103
COCCOC(=O)C1=C(C)NC2=C(C(=O)CC(c3ccc(OC)cc3)C2)C1c1cc(OC)c(OC)c(OC)c1 (stereo not given)	x	x	-61	110
O=C(OCN1C(=O)c2ccccc2C1=O)c1ccc(-n2cnnn2)cc1	85	91	6	x

Some of these compounds in order of length of the SMILES, lowest first.
SMILES	Sa growth 42C	Sa growth 42C second temp	HCMV UL50-53 inh	GIV Gai3 FP
COC(=O)c1cc(COC(=O)c2ccc(Cl)cc2)oc1C	93	96	0	x
O=C(NCCOc1nnc(-c2ccccc2)o1)c1c(F)cccc1F	114	88	-12	100
O=C(OCN1C(=O)c2ccccc2C1=O)c1ccc(-n2cnnn2)cc1	85	91	6	x
CCOC(=O)C1=C(C)N(c2ccc(OC)cc2)C(=O)/C1=C\c1ccco1	83	87	-53	89
O=C(NCCc1cccs1)c1ccc(Cn2c(SCc3cccc(F)c3)nc3cccnc32)cc1	112	98	-23	96
Cc1cc(C)cc(-n2c(SCC(=O)N3CCCC3)nc3c([nH]c4ccccc43)c2=O)c1	105	74	x	103
COCCOC(=O)C1=C(C)NC2=C(C(=O)CC(c3ccc(OC)cc3)C2)C1c1cc(OC)c(OC)c(OC)c1 (stereo not given)	x	x	-61	110

Compounds were not picked by outcome; any-hit rate near 0.83%.
